MgrA-DNA mod = modulators of Staphylococcus aureus MgrA DNA binding; 0.13% of 84,000 active; AID 602314; inhibition, %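 (about 10 µg/mL by stock and volumes)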; fluorescence polarization;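 active = above 50% in either of two replicates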;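 also: 0% = protein plus DNA without compound and 100% = DNA alone without protein; higher means less MgrA bound to DNA so lower polarization; one replicate is shown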
S aureus helic = blocks Staphylococcus aureus DNA helicase; purified S. aureus helicase, fluorescence unwinding assay; about half of the hits fall short of the stated cut; inhibition, %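 (tested at about 80 µM)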; 0.05% of 120,000 active; AID 485395;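 active = both duplicates at 50% or more, or one of them with a favoured structure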;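 also: 0% = mean of negative control wells and 100% = mean of positive control wells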
The depositor's hits bear a star; . = not tested or not shown; & = joins results of further samples. An excerpt; rates above refer to the full screens.

structure	MgrA-DNA mod	S aureus helic
COc1cc(NC(=O)c2cccc3c2C(=O)N(Cc2cccnc2)C3)cc(OC)c1OC	.	37
COc1ccc(C(O)c2nccn2Cc2ccccc2)cc1 (stereo not given)	.	-3
Clc1ccc(CSc2cnc3ccccc3n2)cc1	-0.7	.
CSc1ccc(C(=O)O)cc1	.	1
C=CCn1c(C)cc(C(=O)CSC2=Nc3ccccc3C3CC=NN23)c1C (stereo not given)	.	0
Cc1ccc(Cn2cccc(C(=O)N3CCc4ccccc43)c2=O)cc1	.	11
Cc1ccccc1C(=O)Oc1c(-c2ccco2)oc2ccccc2c1=O	-0.2	-4
CCc1cc2c(-n3nc(C)cc3C)ncnc2s1	-1.4	-7
O=C(Cc1ccccc1)Nc1c2c(nn1-c1ccc(Cl)cc1)CSC2	0.4	5
COc1ccc(/C=C2\SC(=O)N(C)C2=O)cc1	-0.4	.
CC(=NCC(C)O)c1cc(Cl)ccc1O (stereo not given)	-0.5	.
CC(C)CCSc1nc2ccccc2n1Cc1cc(=O)n2ccsc2n1	.	23
CCOC(=O)/C=c1\s/c(=C\c2ccccn2)c(=O)n1CC(=O)N1c2ccccc2CC1C (stereo not given)	.	-15
Nn1cnnc1SCc1ccc(F)cc1	.	6
CCCOc1ccc(NC(C)=O)cc1	0.4	.
COC(=O)CNC(c1ccccc1)c1cc(Br)ccc1N=Cc1ccccc1O (stereo not given)	0.3	10
CCCCn1cnc2c1c(=O)[nH]c(=O)n2CCC	.	-8
Nc1cc(Cl)c(-n2cccc2)cc1Oc1ccc(Cl)cc1	-3.6	.
CCOC(=O)C1CCCN(C(=O)CCc2ccccc2)C1 (stereo not given)	-1.1	-2
CCOc1ccc(-c2cc(=O)c3ccccc3o2)cc1	.	-22
CNCCc1c(-c2ccccc2)n(-c2ccccc2)c2ccccc12	-1.6	4
Cc1ccc2oc(=O)c3cnn(CC(=O)NCCC4=CCCCC4)c3c2c1	.	13
Cc1ccccc1OCc1nc2c3c4c(sc3ncn2n1)C(C)(C)NC(C)(C)C4	-0.7	.
CCn1nc(C(=O)NCCc2ccc(OC)cc2)c2ccccc2c1=O	.	-2
CCc1ccc(C2=NNC(=O)CC2)cc1	0.4	6
O=C(CSC1=Nc2ccccc2C2=NC(CC(=O)NCc3ccco3)C(=O)N12)NCc1ccco1 (stereo not given)	5.3	8
c1csc(-c2cc(N3CCOCC3)c3ccccc3n2)c1	.	30
O=C(Nc1ccc(F)cc1)c1ccccc1NC(=S)Nc1ccc(Cl)c(Cl)c1	2.9	.
CN(C)c1ccc(C2CC(C)(N3CCCC3)Oc3cc4c(cc32)OCO4)cc1 (stereo not given)	-0.1	-5
CN(C)C(=O)CN1CCN(c2ccc(F)cc2)CC1	0.6	5

Looked up above.
`Cc1ccccc1C(=O)Oc1c(-c2ccco2)oc2ccccc2c1=O` – MgrA-DNA mod: -0.2
`Cc1ccccc1OCc1nc2c3c4c(sc3ncn2n1)C(C)(C)NC(C)(C)C4` – MgrA-DNA mod: -0.7

Next entries
structure	MgrA-DNA mod	S aureus helic
O=C(CC12CC3CC(CC(C3)C1)C2)N1CCC(O)(c2ccc(Cl)cc2)CC1	2.3	.
Nc1ccn(C2O[C@H](CO)[C@@H](O)[C@@H]2O)c(=O)n1 (stereo not given in full)	3.4	.
CS(=O)(=O)N1CCN=C1SCc1ccc(Cl)c(Cl)c1	.	15
O=C(/C=C/c1cnc2ccccc2n1)OCC(=O)N1CCCCCC1	.	-7
O=S1(=O)CCC(n2nnnc2-c2ccccc2)C1 (stereo not given)	.	3
O=[N+]([O-])c1c(-c2cc(C(F)(F)F)cc(C(F)(F)F)c2)cc(C(F)(F)F)cc1C(F)(F)F	0.9	.
CCCSc1nnc2c(n1)OC(c1ccccc1OCC(=O)OCC)Nc1ccccc1-2 (stereo not given)	0.3	.
COc1ccc(N2C(=O)c3ccccc3NC2c2ccc3c(c2)c2ccccc2n3C)cc1 (stereo not given)	-0.3	.
NC(=O)c1oc2ccccc2c1NC(=O)CN1C(=O)c2ccccc2C1=O	.	11
CN(Cc1c(F)cccc1Cl)c1ncnc2ccccc12	.	9
CC(C)(C)C(=O)NCc1ccc(-c2csnn2)cc1	0.1	.
COc1ccccc1/C=C/C1N=C(N)Nc2nc3ccccc3n21 (stereo not given)	.	-6
CCOC(=O)c1cnn(-c2ccc([N+](=O)[O-])cc2)c1-n1cccc1	2.7	.
CCCCN(C)C(=O)c1ccc2c(c1)N(Cc1ccccc1F)C(=O)c1ccccc1S2=O (stereo not given)	.	22
O=S1(=O)NC(=NC2CCCCCC2)c2ccccc21	6.3	12
CSc1sc(C(=O)NCC2CC2)cc1S(=O)(=O)C(C)C	-2.5	.
Cc1nc(N)[nH]c(=O)c1CC(=O)O	-4.0	-17
CCCN(CCC)c1nc(N2CCCC2)nc(N2CCCC2)n1	3.6	2
COc1cc(C(=O)COC(=O)c2ccccc2)cc(OC)c1OC	.	-6
O=C(CN1CCOCC1)OCCCC1CCCCC1	.	2
CC1Cc2nc(SCC(=O)NCc3ccco3)n(Cc3ccccc3)c(=O)c2S1 (stereo not given)	4.0	6
Cc1[nH]nc2oc(=O)c(CC(=O)O)c(C)c12	-0.1	6
O=C(NCc1ccccc1)C1CC1	-2.4	7
COc1ccc(-c2nnc(SCc3ccc(C#N)cc3)n2C(C)C)cc1	.	8
CC(C)C(=O)NCCN1C(=O)S/C(=C\c2cccs2)C1=O	.	-8
CC(=O)Nc1ccc(C(=O)COc2ncnc3c2cnn3-c2ccccc2)cc1	.	3
CCOC(=O)c1nc(N)c(=O)n(-c2ccccc2)n1	.	4
CC1CCN(C(=O)CSc2nc3cc4c(cc3c(=O)n2CCC2=CCCCC2)OCO4)CC1	-1.8	-4
O=C(Nc1nnc(-c2ccccc2Cl)s1)C1CC1	.	6
CCC(=O)Oc1ccc(C2CC(=O)c3c(ccc4ccccc34)N2)cc1OC (stereo not given)	-2.8	3
O=C(O)C1C2C=CC(C2)C1C(=O)NNc1ncnc2ccccc12 (stereo not given)	.	4
CCN(CC)S(=O)(=O)c1ccc(C(=O)NNc2nc3c(OC)ccc(OC)c3s2)cc1	.	5
Cc1ccc2[nH]c(O)c(N=NC(=O)c3nc4ccccc4c(=O)[nH]3)c2c1	.	2
COCc1cc(C)nc(SCCN(C)C)c1C#N	3.9	1
Fc1ccc(-c2noc3ncnc(NCC4CCCO4)c23)cc1 (stereo not given)	.	19
Cc1ccc(-c2nnc(-n3nnc4ccccc43)c3ccccc23)cc1C	-3.4	.
Cc1ccc2oc(=O)c(/C=C(\O)C(C)(C)C)nc2c1	.	0
CC1CCC[S+](c2cc(O)ccc2O)C1 (stereo not given)	32	4
Oc1ccc(CN2CCCc3ccccc32)c2cccnc12	.	14
CC1CCCC(C)N1CCNC(=O)c1cn(C(C)c2ccccc2F)nn1 (stereo not given)	-0.2	7
COc1ccc(CC(=O)NC2=NCCS2)cc1	.	-4
COc1ccccc1-c1noc(CCCC(=O)NC2CCCC2)n1	.	-29
Cc1ccc(CNC(=O)C2CCCN(C(=O)N(C)C)C2)cc1 (stereo not given)	.	1
O=C1CCC(=O)N1CN(CN1C(=O)CCC1=O)C1CCCCC1	1.8	4
CCOc1sc2nc(C)n(CC(=O)N(CC)CC)c(=O)c2c1C	.	12
CC1CCCN(C2(O)C(=O)N(C)c3ccc(Br)cc32)C1 (stereo not given)	.	-16
N#Cc1ccccc1NC(=O)CCCC(=O)Nc1ccccc1C#N	-0.9	6
O=C(NC1CCCCC1)NC1CCN(Cc2nnnn2Cc2ccc(F)cc2)CC1	-1.6	0
CN1CC(=O)N/C1=N/C(=O)Nc1ccc2c(c1)N(C)C(=O)CS2	-1.9	2
NC(=O)CCCCC1CCSS1 (stereo not given)	-1.6	.
COc1ccc(C(=O)NCC(C)C)c(OC)c1	4.0	-4
CCc1nnc(NC(=O)CN2CCN(c3ccccc3)CC2)s1	-3.5	-1
COc1ccc(Cl)cc1NS(C)(=O)=O	-0.6	16
c1ccc(-c2nc(N3CCCCC3)nc3ccccc23)cc1	2.1	1
COCc1cc(=O)[nH]c(-c2ccccc2)n1	-1.3	.
O=C(Nc1cccc([N+](=O)[O-])c1)c1cc(-c2ccccc2)nc2ccccc12	1.0	.
O=C(Nc1cccc(Cl)c1N1CCOCC1)c1ccco1	-3.5	6
O=C(NC1CCCC1)c1cc(F)c(F)cc1Cl	-0.9	12
c1ccc(CSc2nc3ccccc3n2Cc2ccccn2)cc1	0.7	6
CC1C(=O)C(C)C(c2ccc(Br)cc2)NC1c1ccc(Br)cc1 (stereo not given)	0.1	9

The final three entries of the part before are carried over, then new ones follow:
structure	MgrA-DNA mod	S aureus helic
O=C(NC1CCCC1)c1cc(F)c(F)cc1Cl	-0.9	12
c1ccc(CSc2nc3ccccc3n2Cc2ccccn2)cc1	0.7	6
CC1C(=O)C(C)C(c2ccc(Br)cc2)NC1c1ccc(Br)cc1 (stereo not given)	0.1	9
CCC(=O)N1c2ccccc2-c2nnc(SC)nc2OC1c1ccsc1 (stereo not given)	-0.5	6
O=c1[nH][nH]c(=S)n1-c1ccc(Cl)c(Cl)c1	-1.9	.
CCS(=O)(=O)c1ccc2oc(CN3C(=O)S/C(=C\c4ccccc4Cl)C3=O)nc2c1	.	-1
CCOc1ncccc1C(=O)OCc1cn2cc(Cl)ccc2n1	.	-12
O=C1NC(=S)S/C1=C/c1ccc(-c2cccc(C(F)(F)F)c2)o1	.	-11
O=C(Oc1ccccc1)c1cccc(COC(=O)c2cnccn2)c1	1.8	5
NC(=O)Nc1ccc(Cl)cc1	-0.2	.
Cc1ccc(-n2c(C)cc(C=Nc3ccc(-c4nnc5n4CCCCC5)cc3)c2C)cc1	.	-11
O=C(CCCn1c(=O)c2cccn2c2ccccc21)NCCN1CCCCCC1	.	27
CN1CCN(c2cc(-c3cccnc3)nc3ccccc23)CC1	0.4	.
Cc1ccc(NC(=O)Cn2c(=O)c(C#N)c3n(c2=O)CCC3)cc1	.	-2
CC1CN(S(=O)(=O)c2cccs2)C(C)CN1S(=O)(=O)c1cccs1 (stereo not given)	-2.2	13
O=C1C2C(c3ccccc3)C=CC(c3ccccc3)C2C(=O)N1C1CCCCC1 (stereo not given)	-4.2	17
CC1CN(C(=O)c2ccc(Oc3ccccc3)cc2)CC(C)O1 (stereo not given)	.	-8
C=C1CC[C@@H](O)C/C1=C/C=C1\CCC[C@]2(C)[C@@H]([C@H](C)CCCC(C)C)CC[C@@H]12	-0.3	.
O=C(N/N=C/c1ccccc1)NC1CCCCC1	.	-7
CCn1c(=O)[nH]c(=O)c2c(C(F)(F)F)cc(C(F)(F)F)nc21	.	6
Cc1ccn2cc(CNS(=O)(=O)N(C)C)nc2c1	-1.0	1
O=C(CN1C(=O)S/C(=C\c2ccccc2)C1=O)N1CCN(c2ccccc2)CC1	.	7
CCCCSCc1ccc(C(=O)O)o1	-4.6	9
FC(F)(F)c1cccc(OCc2nnc3n2CCC3)c1	.	-4
CCOC(=O)/C(C#N)=C/N1CCCC1c1cccs1 (stereo not given)	.	-3
COc1ccc(Br)cc1C1C(C#N)=C(N)Oc2c1c(C)nn2-c1ccccc1 (stereo not given)	6.8	.
CCc1ccc(N2CC(C(=O)NCCCn3ccnc3)CC2=O)cc1 (stereo not given)	.	-7
CS(=O)(=O)N/N=C/C=C/c1ccccc1	0.9	0
COc1cc2c(cc1OC)C(COc1ccc3c(C)cc(=O)oc3c1)N(C(=O)c1ccco1)CC2 (stereo not given)	.	0
CCN(CC)CCSc1nc2ccccc2c(=S)n1-c1ccccc1	0.8	8
CCOc1ccc2c(c1)ncn2Cc1ccccc1	4.3	30
COc1ccc(N2C(=O)CCC(C(=O)NCc3ccc(F)cc3)C2c2ccc(F)cc2)cc1 (stereo not given)	.	10
CCOc1ccc(CN(C)C(=O)CNC(=O)C2CCCCC2)cc1	.	-5

Record cards, as listed above. Screens in order: MgrA-DNA mod	S aureus helic
Oc1ccc(CN2CCCc3ccccc32)c2cccnc12 as listed: .	14
CCC(=O)Oc1ccc(C2CC(=O)c3c(ccc4ccccc34)N2)cc1OC (stereo not given) as listed: -2.8	3
O=C(/C=C/c1cnc2ccccc2n1)OCC(=O)N1CCCCCC1 as listed: .	-7
c1ccc(CSc2nc3ccccc3n2Cc2ccccn2)cc1 as listed: 0.7	6
Cc1ccc(-c2nnc(-n3nnc4ccccc43)c3ccccc23)cc1C as listed: -3.4	.

Remaining list, next part:
structure	MgrA-DNA mod	S aureus helic
Nc1cc(=O)[nH]c(SCc2ccc(Cl)cc2Cl)n1	-2.1	.
CCOC(=O)C1CCN(C(=O)CCC(=O)NNc2nc3ccccc3c3nc(-c4ccccc4)nn23)CC1	.	2
Cc1cc(C)nc(NS(=O)(=O)c2ccc(N)cc2)n1	0.6&4.7	.
O=C(NCCCN1CCCC1)c1ccc2c(Cl)c3c(nc2c1)CCCC3	.	3
O=C(O)NC(=O)c1ccccc1	.	27
CCCN1Cc2cccc(C(=O)N3CCN(c4ccc(F)cc4)CC3)c2C1=O	.	9
